TRPML1 ag: agonists of human TRPML1 channel | hit rate 0.12% among 410,000 | activation, % (concentration not given with the values) | TRPML1-expressing cells, Ca2+ dye fluorescence, FDSS; host cell line not named in the record; reference of the full effect not given here | AID 624414 | Q9GZU1; in the data active = activation above about 50%; inconclusive = about 30% to 50%; inactive = below about 30%; also: 0% is about no effect; the text of the record puts the active cut at 80%
Target sequence (Q9GZU1 whole entry, looked up): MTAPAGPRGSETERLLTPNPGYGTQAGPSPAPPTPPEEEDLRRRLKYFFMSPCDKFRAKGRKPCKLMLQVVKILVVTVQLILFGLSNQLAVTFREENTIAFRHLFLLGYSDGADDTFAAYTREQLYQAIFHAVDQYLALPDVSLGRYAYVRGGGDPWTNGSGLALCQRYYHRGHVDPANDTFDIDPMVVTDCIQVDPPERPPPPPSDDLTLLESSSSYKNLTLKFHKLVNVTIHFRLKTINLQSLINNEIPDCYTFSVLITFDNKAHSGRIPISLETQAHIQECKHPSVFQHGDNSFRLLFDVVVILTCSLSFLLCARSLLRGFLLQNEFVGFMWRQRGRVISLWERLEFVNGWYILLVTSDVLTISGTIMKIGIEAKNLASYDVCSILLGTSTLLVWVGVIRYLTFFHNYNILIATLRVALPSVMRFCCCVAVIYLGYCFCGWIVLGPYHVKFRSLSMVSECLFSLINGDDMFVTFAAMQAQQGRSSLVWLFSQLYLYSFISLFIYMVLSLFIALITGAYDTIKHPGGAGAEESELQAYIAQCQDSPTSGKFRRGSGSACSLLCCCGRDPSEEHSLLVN
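TRPML1-DL cells, Tet-induced overnight (~16 h, 37 degrees C), loaded 45-90 min at room temperature with Ca8 no-wash calcium dye plus quencher. FDSS fluorescence: 10 s baseline, compound pin-transfer, 110 s agonist read, then EC80 54-4 (4uM final) and 110 s antagonist read.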
Sfp PPTase inh: Sfp phosphopantetheinyl transferase inhibition. Biochemical Sfp PPTase activity, qHTS. Potency, µM, without a hit: max response, negative = inhibition, usual class: inhibitors. hit rate 3.5% among 310,000; active = well fitted inhibition curve with a large enough effect; inconclusive = small, poorly fitted or top-dose-only effect, or another doubt; inactive = no such curve, though single readings can be large or run the other way;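 also: the enzyme is Sfp with the accession as filed and its product quenches rhodamine fluorescence; potency is read from the fitted curve at half-maximal effect; 0% = enzyme reaction without inhibitor and -100% = no enzyme wells; top concentration of the series not given in the record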
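Fluorescence-quenching assay: 15 nM Sfp-PPTase preincubated 15 min at room temperature with compound, then 5 uM rhodamine-CoA and 12.5 uM BHQ-2-labelled YbbR peptide added. Fluorescence (ex 525/em 598 nm) read at start and after 30 min; difference gives rate.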
Menin-MLL FL inh: menin-MLL binding inhibition, fluorescein peptide; Fluorescence polarization, fluorescein-MLL peptide displacement from menin; FP activity change, % at 61.4 µM; 290,000 tested, under 10 active; AID 1766; inconclusive = falling polarisation curve, or a change in total fluorescence; inactive = total fluorescence flat and polarisation flat or rising; no compound was filed as active; the % refers to the polarisation; negative = inhibition;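 also: % of control where 0% means no effect; inhibitors lower the polarisation; unlabelled MLL peptide was the positive control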
TRPV1 potentiator: enhances activation of the human vanilloid receptor TRPV1. hit rate 0.02% among 320,000. TRPV1-expressing cells, Fluo-8 calcium influx, capsaicin EC20 potentiation; host cell line not named in the record; control for the full effect not named in the record. Q8NER1. potentiation, % at 8.33 µM; active means potentiation above 80%; inconclusive means 30% to 80%; inactive means below 30%; also: 0% is about no effect
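TRPV1-expressing cells were cultured overnight at 35.5C and loaded with Fluo-8 calcium dye for 40 to 90 min at room temperature. After a 10 s baseline, compound was added and calcium influx was read kinetically for 3 min (ex 480/em 520 nm).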
PINK1 expr mod: PINK1 expression modulation. PINK1 immunofluorescence, high-content cytometry, 24 h. Potency, µM (highest dose often 76.6 µM), without a hit: top-dose activation (PINK1 increase), most hits filed as activators. hit rate 0.2% among 410,000; active = well fitted activation curve with a large enough effect; inconclusive = small, poorly fitted or top-dose-only effect; inactive = flat fitted curve, though single readings scatter; cell line not stated here;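 also: potency is read from the fitted curve at half-maximal effect; % of control where 0% means no effect; nearly all actives have a fitted effect of over 65% in size; a mitochondrial uncoupler was the plate control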
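A stable cell line was treated with compounds at 5 concentrations for 24 hours, with CCCP as control. PINK1 levels and mitochondrial localization were measured by immunofluorescence with mitochondrial, cell and nuclear markers after fixation, read by laser-scanning cytometry.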
TRPML1 blocker: inhibitors of human TRPML1 channel. TRPML1-inducible cells, Ca2+ dye fluorescence, FDSS; stronger effect = lower value; inhibition of EC80 agonist-evoked calcium signal. activity change, negative = inhibition, % (concentration not given with the values). hit rate 0.02% among 390,000. AID 624415; in the data active means activity change below about -50%; inconclusive means about -30% to -50%; inactive means above about -30%;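 also: stimulus is agonist 54-4 at its EC80 concentration; % is scaled to controls: 0 for no effect and ±100 for the full control effect; compound concentration not given in the record; the text of the record puts the active cut at -80%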
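Calcium fluorescence in TRPML1-DL cells induced overnight with Tet: a 110 s read after compound pin addition, then a 110 s antagonist read after challenge with 54-4 at 4 uM final (EC80).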
ClpP mod: qHTS Assay for Activators of ClpP; hit rate 1.9% among 340,000; purified B. subtilis ClpP, FRET peptide cleavage, 20 min; Potency, µM (highest dose often 57.5 µM), for inactives: at the top dose activity change, negative = active; AID 651965, 2013; active = well fitted falling curve with a large enough effect; inconclusive = small, poorly fitted or top-dose-only effect; inactive = no such curve, though single readings can be large or run the other way; also: potency is read from the fitted curve at half-maximal effect; the source files actives as falling curves though it sought activators and does not explain the sign; nearly all actives have a fitted effect of over 65% in size; many hits overshoot -100%
Target sequence (P80244 whole entry, looked up): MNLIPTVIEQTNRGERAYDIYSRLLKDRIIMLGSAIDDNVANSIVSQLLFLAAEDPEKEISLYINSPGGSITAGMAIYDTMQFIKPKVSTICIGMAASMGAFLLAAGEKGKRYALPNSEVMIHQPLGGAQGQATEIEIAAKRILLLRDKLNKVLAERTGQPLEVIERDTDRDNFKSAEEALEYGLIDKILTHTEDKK
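ClpP 10 microg/mL final, pH 8 Tris/KCl buffer with BSA, glycerol, Tween-20; compound pinned in; FRET-FV substrate; RT 20 min; Ex320/Em430; ΔFRET vs ADEP 5.8 microM, DMSO, no enzyme.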
Numbers without * were called inactive; ? = inconclusive; nt = not tested or not shown; & = joins results of further samples; [ ] = another dose, or the depositor's remark. No enrichment for hits. About 4.4% of those tested had a hit in this group.

SMILES	TRPML1 ag	Sfp PPTase inh	Menin-MLL FL inh	TRPV1 potentiator	PINK1 expr mod	TRPML1 blocker	ClpP mod
CNC(=O)[C@@]1(C)C=C[C@@H](Cc2ccccc2)N1C(=O)OC	-0.6	2.0%&10.9%	-0.2&4.5	14.7	0.1%	25.8	0.4%
CCOC(=O)c1c(C)[nH]c(C)c1C(=O)COc1ccc(NC(=O)c2ccco2)cc1	0.2	18.1%	6.6	14.1	1.1%	-9.7	0.9%
O=C(COC(=O)c1c(F)cccc1Cl)NC1CCCCC1	0.2	nt	nt	-15.6	1.7%	3.0	nt
CCSc1nnc(C)c(=O)n1COC(=O)c1ccc(S(=O)(=O)N2CCCC2)cc1	1.5	-2.9%	2.3	6.0	1.0%	19.9	-1.3%
O=C(Nc1sc2c(c1C(=O)O)CCC2)c1ccc(F)cc1	0.3	-6.3%	-2.6	13.3	0.2%	-9.2	nt
COc1ccc(C2=CC(c3cccc(C)c3)n3nnnc3N2)cc1 (stereo not drawn)	5.6	nt	nt	-6.8	0.0%	-21.6	31.6µM*
CCOC(=O)C1(CC2CC2)CCN(C(=O)c2cccnc2C)CC1	1.2	10.8%	1.1	7.8	-0.7%	0.8	nt
O=C(CSc1nc2nc3c(cc2c(=O)n1-c1ccccc1)CCCC3)Nc1cccc2ccccc12	0.4	19.1%	3.0	14.3	1.0%	24.3	0.3%
O=C(CN1CCCc2ccccc21)Nc1cc(S(=O)(=O)N2CCCC2)ccc1Cl	1.9	nt	nt	4.6	1.7%	20.2	-1.6%
CSc1ccccc1C(=O)Nc1ccc(C)c(C)c1	0.7	9.9%	2.2	-9.5	3.7%[38.3 µM]	6.7	-0.5%
c1ccc2c(c1)oc1c(N3CCN(Cc4ccc5c(c4)OCO5)CC3)ncnc12	2.2	-17.2%	-0.6	1.5	3.1%	2.4	-6.1%
O=C(CNC(=O)[C@@H]1Cc2ccccc2CN1)NC1CCCCC1	-0.1	12.0%	-0.7	3.1	-0.9%	13.8	0.6%
O=C(NC(=S)NC1CCCCC1)c1ccc(F)cc1	3.4	2.2%	nt	-6.9	9.7%	16.4	-0.2%
CC(C)N1CCC(N2CCN(Cc3ccc(-c4ccccc4Cl)o3)CC2CCO)CC1 (stereo not drawn)	0.2	-29.0%	-4.6	6.4	1.1%	-4.8	nt
COc1ccc(N2CCN(C(=O)CCCC(=O)c3ccccc3)CC2)cc1	2.2	7.2%	-0.1	6.4	-3.3%	-2.6	-0.7%
O=c1[nH]cnc2c1ncn2[C@@H]1O[C@H](COS(=O)(=O)O)[C@@H](O)[C@H]1O	0.2	nt	nt	nt	1.0%	-29.4	1.4%
CCOCCCn1c(SCC(=O)NC(C)C)nc2ccccc2c1=O	1.3	8.9%	-0.3	3.3	9.1%[38.3 µM]	6.3	-1.7%
CCN(C[C@H]1N[C@@](Cc2ccccc2)(C(=O)OC)[C@H]2C(=O)N(Cc3ccccc3)C(=O)[C@@H]12)C(=O)COC	-0.9	nt	nt	nt	-1.2%	-7.7	-0.3%
Cc1onc(-c2ccccc2)c1C(=O)N1CCCC(C)(C(=O)NS(=O)(=O)C2CC2)C1 (stereo not drawn)	-0.3	nt	nt	nt	0.2%	1.8	-1.8%
O=C(/C=C/c1ccccc1)Nc1nc(-c2cccs2)ns1	3.1	nt	nt	nt	2.5%	21.9	25.0%
COc1ccc(S(=O)(=O)N2CCCCCC2)cc1C(=O)N(C)Cc1ccc(C)cc1	0.6	nt	nt	-15.8	3.3%	2.2	-2.9%
CC[C@]12c3[nH]c4ccccc4c3CCN1C(=O)C(CC(=O)NCC13CC4CC(CC(C4)C1)C3)C[C@@H]2C(=O)N1CCN(C(=O)C2CC2)CC1 (stereo partly drawn)	5.0	nt	nt	nt	0.2%	-4.3	0.5%
COC(=O)c1ccccc1NC(=O)CN(C1CCCCC1)S(C)(=O)=O	-0.9	19.7%	-0.4	4.8	0.6%	4.7	-18.8%
CSCc1ccc(C(=O)N2CCC(CCC(=O)N(C)Cc3ccccc3)CC2)o1	0.5	50.1µM*	-1.7	?	5.4%	12.5	0.4%
COC(=O)CNC(=O)CNC(=O)Nc1ccccc1	-0.7	0.4%	2.1	-0.9	-0.7%[38.3 µM]	0.5	0.5%

Continued:
SMILES	TRPML1 ag	Sfp PPTase inh	Menin-MLL FL inh	TRPV1 potentiator	PINK1 expr mod	TRPML1 blocker	ClpP mod
COc1ccc(N=C2SC(C(=O)Nc3ccc(F)cc3)CC(=O)N2C)cc1 (stereo not drawn)	-0.9	4.1%	-1.2	6.8	1.7%	-22.9	nt
CN(C)CCC(=O)c1ccc(F)cc1	nt	12.6%	2.4	-3.9	0.7%	nt	0.2%
CCc1ccc(N2C(=O)N(CC(=O)C(C)(C)C)c3ccccc3S2(=O)=O)cc1	-0.5	nt	nt	nt	0.3%	-12.9	-0.2%
Cc1[nH]c(=S)[nH]c(=O)c1CCCO	0.4	?	2.2	-11.9	-2.5%	11.0	nt
CC(C)C[C@H]1COCCS(=O)(=O)N1Cc1ccccc1F	0.0	nt	nt	nt	3.2%	7.2	1.0%
CC(OC(=O)Cn1cc(C(F)(F)F)ccc1=O)C(=O)N(C)c1ccccc1 (stereo not drawn)	-0.3	nt	nt	nt	1.0%	0.2	0.3%
COc1ccccc1NS(=O)(=O)c1ccc(NC(=O)c2nc3nc(C)cc(C(F)F)n3n2)cc1	2.7	14.7%	3.1	-4.7	5.9%[38.3 µM]	-21.3	0.7%
Cn1cnc(S(=O)(=O)N2CCC(C(=O)N3CCN(c4cccc(C(F)(F)F)c4)CC3)CC2)c1	1.0	nt	nt	nt	0.8%	-0.6	-0.3%
O=c1cc(N2CCC3(CC2)OCCO3)[nH]c(=O)n1-c1ccc(Cl)cc1	1.4	-2.9%	1.8	-0.5	?	12.0	-3.2%
Cc1ccc(NC(=O)CSc2nnc(-c3n[nH]c4ccccc34)n2-c2ccccc2)c(C)c1	0.3	0.1%	0.3	3.6	-1.4%	5.5	1.6%
COc1ccc(Nc2nnc(-c3ccc(O)cc3)c3ccccc23)cc1C(N)=O	2.0	-14.0%	-0.5	14.5	?	21.5	-1.8%
O=[N+]([O-])c1ccccc1OCCCCN1CCCCC1	0.1	7.9%	-0.2	-1.6	-3.2%[38.3 µM]	-6.8	-0.8%
O=C(Nc1nncs1)c1cc2c(s1)CCC2	-0.1	4.7%	2.3	12.1	-0.2%	10.5	nt
O=C(Nc1ncnc2c1ncn2C1OC(COC(=O)c2ccccc2)C(F)C1O)c1ccccc1 (stereo not drawn)	-0.7	8.2%	-0.2	-0.3	0.6%	-2.8	-0.9%
O=C(NC(Cc1ccc(O)cc1)C(=O)O)/C(=C/c1ccccc1)NC(=O)c1ccccc1 (stereo not drawn)	-0.5	12.2%	nt	7.2	-0.8%	6.6	3.8%
Cc1cc(NC(=O)COc2ccc3oc4ccccc4c3c2)no1	-0.8	9.3%	-0.3	15.2	2.8%	32.4	-9.4%
COc1cc(OC)c(C(=O)NNC(=O)c2ccc(NS(=O)(=O)c3cccs3)cc2)cc1OC	2.8	nt	nt	nt	0.5%	21.3	6.7%
CCCn1c2ccccc2c2cnn(CC(=O)NCCCOC)c(=O)c21	-0.7	5.4%	-4.9	-8.7	0.2%	8.1	-0.6%
COC(=O)/C=C1\SC(=NC(=O)c2ccc(-c3ccccc3)cc2)NC1=O	0.9	nt	nt	nt	-2.0%	2.4	nt
CCOc1ccc(C(=O)Nc2ccc3nc(SCCOc4ccccc4)sc3c2)cc1	-0.6	nt	nt	nt	1.2%	26.0	2.0%
O=C1/C(=C/c2ccccc2)CSc2sccc21	3.6	4.0%	-4.2	-14.1	2.1%	10.4	-3.2%
CCc1cc(C(=O)c2ccc(OC)cc2)c(NC(=O)CN2CCCCC2)s1	-0.8	8.1%	-0.8	-12.9	3.2%	-0.9	-0.5%
COc1ccc(C(=O)NCc2nnc(SCC(=O)NO)n2Cc2ccccc2)cc1	nt	-3.5%	0.6	-8.2	5.2%	nt	-1.2%
CCn1cc(C(=O)OCC(=O)Nc2cc(Cl)ccc2C)c(=O)c2ccc(C)nc21	-1.0	nt	nt	nt	2.9%	21.1	0.9%
Cc1ccn2c(C(=O)NNC(=O)Nc3ccc(Cl)cc3)c(C)nc2c1	0.9	-1.8%	nt	-3.5	-0.4%	0.0	-0.4%

Other compounds.
SMILES	TRPML1 ag	Sfp PPTase inh	Menin-MLL FL inh	TRPV1 potentiator	PINK1 expr mod	TRPML1 blocker	ClpP mod
O=[N+]([O-])/C(=C\Nc1ccccc1)S(=O)(=O)c1ccccc1	0.5	-15.4%	-0.4	2.0	1.8%	19.2	-0.8%
CCOc1ccc(N(CC(=O)N/N=C/c2cc([N+](=O)[O-])ccc2Cl)S(C)(=O)=O)cc1	1.8	10.8%	0.6	1.3	2.9%	43.2	0.6%
O=C(Cc1c(F)cccc1Cl)Nc1ccc(S(=O)(=O)NCC2CCCO2)cc1 (stereo not drawn)	0.1	-3.0%	3.7	-8.7	-0.9%	-4.0	nt
COc1ccccc1-n1c(SCC(=O)Nc2ccc3c(c2)OCO3)nc2c(c1=O)SCC2	0.4	13.3%	-0.7	2.8	-3.0%	15.0	-6.8%
COc1cccc(CNC(=O)CSc2ncc3c(n2)-c2cc(Cl)ccc2N(C)S3(=O)=O)c1	1.0	nt	nt	nt	-0.1%	16.1	-9.3%
CCOC(=O)C1C(=O)OC(C)(C)C1C(C)C(=O)c1ccc(OC)cc1 (stereo not drawn)	-0.4	8.7%	0.4	21.5	0.5%[38.3 µM]	-6.8	-2.7%
Oc1ccccc1CN(Cc1ccco1)CC(O)COCc1ccc(Cl)cc1 (stereo not drawn)	1.0	3.2%	1.5	6.9	-1.8%	51.0	-4.8%
COc1ccc(C(=O)Nc2ccccc2N2CCCC2)cc1	nt	3.2%	-4.5	-21.9	2.6%	nt	-1.4%
COc1ccc(OC)c(NC(=O)c2cccc(C)c2[N+](=O)[O-])c1	1.3	13.0%	1.4	1.2	0.4%	-4.5	-0.6%
COc1cccc(Nc2ccc(C(=O)O)cc2[N+](=O)[O-])c1	2.9	7.2%	0.3	1.0	-1.3%	-13.4	0.3%
CCOC(=O)N1CCN(S(=O)(=O)CCNC(=O)c2ccccc2)CC1	0.4	nt	nt	-9.7	1.2%	-16.9	nt
CCc1ccc(NC(=O)CSc2nc(=O)n(Cc3ccccn3)c3c2CCC3)cc1	0.0	nt	nt	nt	-0.3%	-20.1	-0.5%
COc1ccc(CNc2nc(Cl)c(C#N)s2)cc1	0.5	13.4%	6.4	4.9	1.6%	19.0	-2.3%

Screens: PubChem BioAssay, National Center for Advancing Translational Sciences (NCATS)
